Screening data (PubChem BioAssay)
TAR Tat displ: HIV-1 TAR-Tat binding disruption; AID 1259389; actives 0.6% (n = 100,000); HIV-1 TAR RNA, Tat peptide displacement FRET; stronger effect = higher value; z-score (test concentration not listed);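 further: score is relative to mean and SD of negative controls; some compounds called inactive have numbers as strong as hits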
CDC25B-CDK2 inh: human CDC25B-CDK2/CyclinA binding inhibition. actives 0.72% (n = 94,000). z-score (test concentration not listed). AID 1259370. HTRF CDC25B-CDK2/CyclinA binding, anti-His/anti-Flag; stronger effect = higher value. P30305+P24941;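 further: score is relative to mean and SD of negative controls; strong numbers were not always called active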
Numbers without * were called inactive; nt = not tested or not shown.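 How the source made its calls: active means z-score from 3 up in half or more of its runs; inactive means the rest.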

Under each structure: TAR Tat displ	CDC25B-CDK2 inh
1: CC1=NC2c3c(oc(C(=O)NC4CCCC4)c3C)CCC2S1 (stereo not drawn)
 : -0.27	nt
2: Clc1ccc(CCN2COc3cc4c(cc3C2)OCO4)cc1
 : nt	-1.6
3: Oc1cccc2ccc(CNc3ccc(F)c(Cl)c3)nc12
 : 2	nt
4: CCOc1ccc(-n2c(C)c(C(C)=O)c3cc(OC(C)=O)ccc32)cc1
 : nt	-2
5: CC1=C(C(=O)Nc2ccc(Cl)cc2)C2(CCCCC2)OC1=O
 : 1.6	-0.09
6: COc1ccc(CN2CCc3nc(N4CCN(c5ncccn5)CC4)ncc3C2)cc1
 : -2.4	nt
7: CC1CCCCC1Nc1ncnc2onc(-c3ccc(F)cc3)c12 (stereo not drawn)
 : -5.3	nt
8: COC(=O)c1ccccc1-n1cc2c(c1-c1ccccc1Br)c(=O)n(C)c(=O)n2C
 : 2	-0.89
9: Cc1ccc(-n2nnc(-c3nc(-c4ccc5c(c4)OCO5)no3)c2N)c(C)c1
 : 1.3	nt
10: CC1CCC(Nc2c(-c3ccc(Cl)cc3)c(=O)c2=O)CC1 (stereo not drawn)
 : -0.12	nt
11: CC1Cc2ccccc2N1C(=O)C1CCN(c2ccc(-c3cccs3)nn2)CC1 (stereo not drawn)
 : 0.19	nt
12: O=C(NCCc1cccs1)c1cnn2c3c(cnc12)CCCC3
 : -1.6	nt
13: O=S(=O)(Nc1ccc2nc(-c3cccc(Cl)c3)oc2c1)c1ccccc1
 : 1.4	0.99
14: Cc1cc(Nc2ccc(N(C)C)cc2)n2nc(-c3ccccc3)nc2n1
 : -0.45	-2
15: Cc1cccc(N2CSC3=C(C#N)C(c4ccccc4C)CC(=O)N3C2)c1 (stereo not drawn)
 : -0.12	3.6*
16: CCc1ccc(C2N3CC4(CC)CN2CC(CC)(C3)C4=O)cc1 (stereo not drawn)
 : 0.69	-1
17: Cc1ccc(Cl)cc1NS(=O)(=O)c1ccc2c(c1)N(C)CCO2
 : 0.83	nt
18: Cn1c(-c2ccccc2)cnc1SCC(N)=O
 : 0.41	nt
19: O=S(=O)(N=C1SCCS1)c1ccccc1
 : nt	-3.3
20: Cc1cc2nc(Nc3nc4ccccc4c(=O)[nH]3)nc(C)c2cc1C
 : -0.48	1.6
21: Fc1ccc(-c2csc(-c3nc(-c4ccc5c(c4)OCO5)cs3)n2)cc1
 : 0.63	nt
22: CCOC(=O)c1ccc2c(c1)nc(C)n2CC
 : 2.4	-2.2
23: O=C(Nc1ccccc1)c1cc2ccccc2c(=O)s1
 : 17	-0.6
24: COc1ccc(-c2ccc(Cc3nc(Cc4ccccc4)no3)cc2)cc1
 : -0.99	nt
25: CN(C)CCCN1C(=O)c2oc3ccc(F)cc3c(=O)c2C1c1ccccc1 (stereo not drawn)
 : 0.94	nt
26: Cc1cc(C)n(-c2ncnc3c2nnn3Cc2ccccc2Cl)n1
 : nt	-1.5
27: COc1cc(OC)c(NS(=O)(=O)c2csc(C(N)=O)c2)cc1Cl
 : 1.7	nt
28: CCc1nn(CCCC(=O)Nc2ccc(Br)c(C)c2)c(=O)c2cc3occc3n12
 : 2.4	-1.7
29: CN(C)c1ccc(C2N(c3ccc(Cl)cc3)C(=O)C3CCCN32)cc1 (stereo not drawn)
 : 0.85	-2
30: O=C1CCCC2=C1C(c1cc(Br)ccc1O)C1C(=O)c3ccccc3C1=N2 (stereo not drawn)
 : -1.6	-2

Profiles from above. Values in the order: TAR Tat displ, CDC25B-CDK2 inh
COc1cc(OC)c(NS(=O)(=O)c2csc(C(N)=O)c2)cc1Cl is entered as 1.7, nt
CN(C)c1ccc(C2N(c3ccc(Cl)cc3)C(=O)C3CCCN32)cc1 (stereo not drawn) is entered as 0.85, -2
Cc1ccc(-n2nnc(-c3nc(-c4ccc5c(c4)OCO5)no3)c2N)c(C)c1 is entered as 1.3, nt
Cc1cc2nc(Nc3nc4ccccc4c(=O)[nH]3)nc(C)c2cc1C is entered as -0.48, 1.6
COc1ccc(CN2CCc3nc(N4CCN(c5ncccn5)CC4)ncc3C2)cc1 is entered as -2.4, nt

The listing picks up, repeating the three entries before the break.
Under each structure: TAR Tat displ	CDC25B-CDK2 inh
28: CCc1nn(CCCC(=O)Nc2ccc(Br)c(C)c2)c(=O)c2cc3occc3n12
 : 2.4	-1.7
29: CN(C)c1ccc(C2N(c3ccc(Cl)cc3)C(=O)C3CCCN32)cc1 (stereo not drawn)
 : 0.85	-2
30: O=C1CCCC2=C1C(c1cc(Br)ccc1O)C1C(=O)c3ccccc3C1=N2 (stereo not drawn)
 : -1.6	-2
31: COC(=O)c1cccc(NC(=O)Nc2ccccc2)c1
 : nt	-2
32: Nc1nc(NCc2ccccc2F)nn1-c1ccccc1
 : 1.2	-1.8
33: Fc1cccc(Cl)c1Cn1ncc2ccccc21
 : 1.4	-0.52
34: COc1ccc(-n2c(=O)c(C#N)cc3c(=O)n4cccc(C)c4nc32)cc1Cl
 : 0.04	-0.68
35: CSc1nccc(-c2ccsc2)n1
 : nt	-1.1
36: Cc1cc2oc(C(=O)N(Cc3ccco3)c3ccccn3)c(C)c2cc1C
 : 0.85	-2
37: Brc1ccc(-n2nnnc2CSc2ccccn2)cc1
 : 1.2	-1
38: COc1ccccc1-c1nc2c3c4c(sc3ncn2n1)CCCCC4
 : 1.5	-0.66
39: O=C(Nc1ccc(S(=O)(=O)NC23CC4CC(CC(C4)C2)C3)cc1)c1ccc(Cl)cc1
 : nt	-1.2
40: NS(=O)(=O)c1ccc(NNC(=O)c2c(F)cccc2Cl)cc1
 : nt	0.5
41: COC(=O)CSc1nnc(C)c2c(C)n(-c3ccc(C)cc3C)nc12
 : -1.4	nt
42: Cc1ccc(C(=O)N(Cc2ccc(C)o2)C2CCS(=O)(=O)C2)cc1 (stereo not drawn)
 : 2.1	-1.4
43: C=CCNc1nc2c(c(=O)n(C)c(=O)n2C)n1Cc1ccc(F)cc1
 : -1.5	-0.66
44: COc1ccc(S(=O)(=O)c2cn(C)c3ccc(Cl)cc3c2=O)cc1
 : -1.1	-1.1
45: Cc1cccn2c(=O)c3cc(C(=O)Nc4ccc(C(C)C)cc4)n(C)c3nc12
 : 1.4	nt
46: NC(=O)Cn1c(=O)c2ccccc2n2c(=S)sc(-c3ccc(Cl)cc3)c12
 : -0.65	-1.6
47: Cc1nn2c3c(cnc2c1-c1ccc(Cl)cc1)C(=O)CC(c1cccs1)C3 (stereo not drawn)
 : -0.35	-0.45
48: Cc1cc(=O)[nH]c(SCC(=O)Nc2nnc(CC(C)C)s2)n1
 : nt	1.3
49: CC1=C(c2ccc(C(C)C)cc2)S(=O)(=O)NC1=NC(C)c1ccccc1 (stereo not drawn)
 : -0.9	-1.8
50: OC(COc1ccccc1)CN1CCOCC1 (stereo not drawn)
 : 2.3	-1
51: CCOc1ccc2c(c1)C(C)=CC(C)(C)N2C(=O)Nc1ccccc1F
 : -0.54	-2.2
52: CCc1nnc2c(Nc3cccc(OC)c3)nc3ccccc3n12
 : 1.7	0.22
53: CCn1c(CCc2ccccc2)nnc1SCc1nc(-c2ccc(OC)cc2)no1
 : 2	1.7
54: CCOC(=O)N1CCN(c2cc(C)nc3nc(-c4ccc(C)cc4)nn23)CC1
 : -0.14	-1.3
55: Cc1ccc(-c2noc(CN(C(=O)c3ccc(F)cc3)C(C)C)n2)cc1
 : nt	-0.71
56: CCCCOC(=O)C1=C(C)NC2=C(C(=O)CCC2)C1c1ccc(OC)c(Br)c1 (stereo not drawn)
 : 0.28	-2.4
57: CCCc1ccc(S(=O)(=O)N2CCN(c3ncccn3)CC2)cc1
 : 1.6	-0.61
58: Cc1cc(Nc2ccc(N3CCOCC3)cc2)n2nc(-c3ccco3)nc2n1
 : 1.9	nt
59: CCOC(=O)c1cc(C#N)c2ccccn2c1=O
 : nt	-2
60: COc1ccc(-c2noc(NCc3ccco3)n2)cc1
 : 0.94	nt

Overlap with the part before: five entries, followed by the next part.
Under each structure: TAR Tat displ	CDC25B-CDK2 inh
56: CCCCOC(=O)C1=C(C)NC2=C(C(=O)CCC2)C1c1ccc(OC)c(Br)c1 (stereo not drawn)
 : 0.28	-2.4
57: CCCc1ccc(S(=O)(=O)N2CCN(c3ncccn3)CC2)cc1
 : 1.6	-0.61
58: Cc1cc(Nc2ccc(N3CCOCC3)cc2)n2nc(-c3ccco3)nc2n1
 : 1.9	nt
59: CCOC(=O)c1cc(C#N)c2ccccn2c1=O
 : nt	-2
60: COc1ccc(-c2noc(NCc3ccco3)n2)cc1
 : 0.94	nt
61: Cc1ccc(N2CC(C(=O)O)CC2=O)cc1Cl (stereo not drawn)
 : 1.1	nt
62: N#Cc1ncc(C(F)(F)F)cc1Oc1ccc(Cl)cc1
 : nt	-1.3
63: Cc1ccc2nc(NCCN3CCOCC3)c3nncn3c2c1
 : 0.22	1.1
64: O=C(Cn1ncn2nc(-c3ccco3)cc2c1=O)NCc1ccco1
 : -0.99	-1.2
65: O=C(c1ccc(NC2=NC3CS(=O)(=O)CC3S2)cc1)N1CCN(C(=O)c2ccco2)CC1 (stereo not drawn)
 : 0.19	-0.96
66: COc1cc2c(cc1NS(=O)(=O)c1ccc(C3CCCCC3)cc1)n(C)c(=O)n2C
 : 0.89	nt
67: Cc1ccc2sc(N3CCN(C(=O)c4ccc5c(c4)OCCO5)CC3)nc2c1C
 : 0.62	nt
68: COc1ccc(C2c3c(oc4ccccc4c3=O)C(=O)N2c2ccccn2)cc1 (stereo not drawn)
 : 1.3	-0.92
69: CSc1nnc(-c2ccccc2)c(-c2ccccc2)n1
 : 1.5	0.45
70: Cc1nn(C(=O)c2sc3ccccc3c2Cl)c(C)c1Cl
 : -0.67	-1.7
71: CCN1C(C(=O)c2ccccc2)=C(OC(=O)COc2ccc(C)cc2)c2ccccc2S1(=O)=O
 : 2.7	-2.6
72: Cc1cc(C)cc(NC(=O)N2Cc3cccn3-c3ccccc32)c1
 : 0.5	nt
73: COc1ccc(N(C(=O)C2CCCCC2)S(=O)(=O)c2ccc3c(c2)oc(=O)n3C)cc1
 : 0.35	-0.82
74: CCc1onc(C)c1C1CCCN1C(=O)Cn1nc(C(F)(F)F)cc1C (stereo not drawn)
 : 1.7	nt

Three compounds out of the list, sorted by length of the SMILES, high to low:
Under each structure: TAR Tat displ	CDC25B-CDK2 inh
73: COc1ccc(N(C(=O)C2CCCCC2)S(=O)(=O)c2ccc3c(c2)oc(=O)n3C)cc1
 : 0.35	-0.82
30: O=C1CCCC2=C1C(c1cc(Br)ccc1O)C1C(=O)c3ccccc3C1=N2 (stereo not drawn)
 : -1.6	-2
16: CCc1ccc(C2N3CC4(CC)CN2CC(CC)(C3)C4=O)cc1 (stereo not drawn)
 : 0.69	-1
